# GALR2 ag: GALR2 receptor agonists, primary screen, cell-based; Galanin receptor type 2 (Homo sapiens), O43603; GALR2-expressing cells, agonist activation read-out; activation, %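 (tested at 5 µM)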; actives 0.48% (n = 140,000); AID 803, 2007;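 active = above mean plus 3 SD of all compounds, about 5% in these data, not always enough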;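 note: 0% = vehicle buffer wells and 100% = reference agonist at full effect; tested in CHO reporter cells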
# Target sequence (O43603 whole entry, looked up): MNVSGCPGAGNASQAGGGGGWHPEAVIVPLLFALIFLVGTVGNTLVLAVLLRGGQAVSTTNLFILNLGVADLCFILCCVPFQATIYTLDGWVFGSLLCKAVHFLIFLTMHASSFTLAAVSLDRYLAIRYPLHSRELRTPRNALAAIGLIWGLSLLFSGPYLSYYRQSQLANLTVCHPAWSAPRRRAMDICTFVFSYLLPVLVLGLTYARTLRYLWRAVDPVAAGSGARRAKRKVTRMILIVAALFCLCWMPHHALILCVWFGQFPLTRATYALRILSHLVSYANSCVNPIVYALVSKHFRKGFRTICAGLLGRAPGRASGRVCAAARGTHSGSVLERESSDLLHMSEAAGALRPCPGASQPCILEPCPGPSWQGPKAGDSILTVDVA
# PKD1 inh: inhibitors of human PKD1 kinase, biochemical, fluorescence polarization | PKD1 kinase fluorescence polarization assay | actives 0.056% (n = 200,000) | Serine/threonine-protein kinase D1 (Homo sapiens), Q15139 | inhibition, %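 (about 10 µM by stock and volumes)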;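 active = inhibition of 50% or more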;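 note: controls were vehicle for no effect and a reference inhibitor for full effect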
# RGS16-Gao HTS: modulators of RGS16 binding to Galphao, primary screen, biochemical, human proteins, multiplexed bead flow cytometry | bead-based flow cytometry RGS16-Galphao binding, fluorescence; actives lie on both sides | binding response (% of control), % at 10 µM | actives 0.38% (n = 220,000);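 active = below 25% or above 175%, edge rows of some plates excepted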;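 note: Galphao activated by GDP with aluminum fluoride before binding; 100% = wells without compound and 0% = beads without RGS; some results beyond the cut were filed as inactive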
# Target sequence (O15492 whole entry, looked up): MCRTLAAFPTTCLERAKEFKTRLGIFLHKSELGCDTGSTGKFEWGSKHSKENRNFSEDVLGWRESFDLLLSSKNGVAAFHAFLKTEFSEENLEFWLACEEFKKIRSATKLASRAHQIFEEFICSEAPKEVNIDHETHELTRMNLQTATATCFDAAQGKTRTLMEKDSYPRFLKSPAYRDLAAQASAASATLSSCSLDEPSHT
# Target sequence (P09471 whole entry, looked up): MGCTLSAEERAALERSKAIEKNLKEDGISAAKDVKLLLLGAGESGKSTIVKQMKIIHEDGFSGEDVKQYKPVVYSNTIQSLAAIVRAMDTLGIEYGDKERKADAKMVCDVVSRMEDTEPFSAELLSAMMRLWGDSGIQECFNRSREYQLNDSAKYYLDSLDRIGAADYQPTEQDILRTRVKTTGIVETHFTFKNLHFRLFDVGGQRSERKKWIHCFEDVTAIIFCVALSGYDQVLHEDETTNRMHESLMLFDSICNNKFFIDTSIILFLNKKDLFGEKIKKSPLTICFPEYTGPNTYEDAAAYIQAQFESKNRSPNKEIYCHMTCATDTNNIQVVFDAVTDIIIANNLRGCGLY
# INS promoter inh: inhibitors of insulin promoter-driven GFP, primary screen, imaging, TRM-6 cells (human fetal islet line), eGFP reporter, cell count; reporter expression induced with tamoxifen; inhibition, % at 2 µM; actives 0.9% (n = 130,000);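 active = inhibition above the mean plus 3 SD, with well images judged a real hit on visual review, cut at about 60% in these data, passing the limit was not always enough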
# HSV augment: enhancers of HSV replication in host cells, fold increase, host cell viability | maximum fold increase | actives 0.005% (n = 220,000) | HSV replication augmentation in cells | AID 1956, 2009;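 active = peak rise of 1.5-fold or more in the series; tested in PC3 cells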;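 note: first round at 10 µM; read as green reporter fluorescence; hits show the peak of a series up to 25 µM; 1 = signal of infected wells without compound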
# INS promoter inh cell count: also measured in INS promoter inh; calls as there; normalized cell count, %; measured here: cell count, toxicity; reference of the scale not given here;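 cells exposed to compound for 48 h; stained nuclei by imaging scaled within each plate; lower means fewer cells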
# HSV augment primary fold: further read-out of HSV augment, marked with its call; fold increase; compound at 10 µM; measured here: primary screen fold increase 10 uM; tested in PC3 cells;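 GFP signal in the first replicate; 1 = infected wells without compound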
# Numbers without * were called inactive; i = inactive; . = not tested or not shown; & = joins results of further samples.
# Order of values: GALR2 ag	PKD1 inh	RGS16-Gao HTS	INS promoter inh	INS promoter inh cell count	HSV augment	HSV augment primary fold
> C=CCn1c(SCC(=O)Nc2nccs2)nnc1-c1ccco1
→ -1.2	-8	104	5	109	i	0.81
> NC(=O)C1CCN(c2cc(N3CCOCC3)ccc2[N+](=O)[O-])CC1
→ .	0	101	.	.	i	1.1
> CCCCOc1ccc(C(=O)NCC(=O)NCC(=O)OCC)cc1
→ -2.6	-4	118	28	137	i	0.93
> O=c1cc(NC2CCCCCC2)[nH]c(=O)[nH]1
→ -2.5	-8	104	55	142	i	0.94
> COC(=O)c1sccc1NC(=O)c1csc(C)c1
→ -2.1	-1	91	40	102	i	0.89
> Nc1c(C(=O)c2ccccc2)sc(Nc2ccccc2)c1S(=O)(=O)c1ccccc1
→ 0.2	5	114	28	87	i	0.89
> CCOc1ccc2nc(-c3ccc(OC)c(OC)c3)cc(C(=O)O)c2c1
→ 0.2	12	101	30	154	i	0.97
> CCOC(=O)c1c(C)n(CC(O)CN(C)C)c2cc(Br)c(OC)cc12 (centres undefined)
→ .	-7	96	-41	92	i	0.93
> CC(C)(C)c1nnc(NC(=O)NS(=O)(=O)c2ccccc2)s1
→ -0.5	-2	101	-36	129	i	0.93
> CCN(CC)C(=O)CSc1nnc(-c2ccco2)n1N
→ -2.8	-3	103	-26	172	i	0.94
> CCc1[nH]nc(C(=O)N2CCCC(CNS(=O)(=O)c3cccs3)C2)c1C (centres undefined)
→ .	0	106	.	.	i	0.93
> O=C(/C(=N\Nc1ccc([N+](=O)[O-])cc1)Sc1nnnn1-c1ccccc1)c1ccccc1
→ -2.6	9	166	-3	70	i	0.86
> COc1cc2c3nnc(-c4ccc(F)cc4)c-3cn(Cc3ccccc3)c2cc1OC
→ -2.5	17	106	.	.	.	.
> Cc1cc(C(N)=O)c2ccccc2n1
→ -4.3	-1	95	-64	120	i	1.2
> O=C(O)CSCC(=O)Nc1ccccc1
→ -1.0	7	.	50	142	i	0.88
> Cc1ccc(NC(=O)C2CC(=O)N(C(C)C)C2)cc1Cl (centres undefined)
→ .	8	73	.	.	i	1.1
> O=C(C[n+]1cc(-c2ccc(Cl)cc2)n2c1CCC2)Nc1nc(-c2ccc(F)cc2)cs1
→ .	.	101	.	.	i	0.9
> COc1ccc(/C=N/NC(=O)C2C3CCCCC32)cc1OC (centres undefined)
→ .	-4	104	0	146	i	0.88
> CC(C)NC(=O)c1nn(C)c2ccccc12
→ 0.8	-5	114	25	135	i	0.99
> CCOC(=O)c1ccc(NC(=O)Cn2nnc(-c3ccccc3C)n2)cc1
→ -1.4	4	99	19	83	i	1
> O=S(=O)(CCN1CCN(c2ccccn2)CC1)c1ccc(F)cc1
→ .	.	99	.	.	i	0.97
> O=C(C1=C[C@H](c2ccc(C(F)(F)F)cc2)C[C@H](OCCCCO)O1)N1CCOCC1
→ .	0	100	.	.	i	1.1
> COc1ccc(CNC(=O)COC(=O)c2n[nH]c3ccccc23)cc1
→ -2.5	-4	98	0	95	i	0.83
> Fc1ccc(N2Cc3ccsc3C=N2)cc1
→ .	-5	100	-47	101	i	0.98
> COc1ccc(C(=O)NNC(=O)Cc2ccc([N+](=O)[O-])cc2)cc1
→ -0.4	-6	105	.	.	i	0.99
> O=C(c1ccc(=O)[nH]c1)N(Cc1ccco1)C1(C(=O)NC2CCCCC2)CCCCC1
→ -2.3	-13	97	42	106	.	.
> NC(=O)C1CCN(C(=O)CSc2nc3c(c(-c4ccccc4)n2)CCCC3)CC1
→ 0.1	-8	105	-300	51	i	0.9
> Oc1ccc(Cl)cc1N=Cc1sc2ccccc2c1Cl
→ .	1	103	-20	91	i	0.83
> O=C(CSc1nnc2ccc(-c3ccncc3)nn12)c1cccs1
→ .	-3	89	50	51	i	1
> CCOc1cnc(C(=O)NNC(=O)C(Br)C(C)C)o1 (centres undefined)
→ .	6	104	.	.	i	0.98
> NC(=S)Nc1cccc2[nH]ncc12
→ .	-2	103	0	146	i	0.89
> CC(Nc1cc(N2CCN(S(C)(=O)=O)CC2)ccc1[N+](=O)[O-])c1ccccc1 (centres undefined)
→ 0.1	7	100	-27	129	i	0.98
> CCC(=O)Nc1ccccc1C(=O)C(=O)Nc1ccccc1
→ -1.0	-15	102	-74	126	i	1
> Cc1cc(SCC(=O)Nc2ccc(O)cc2)n2ncc(-c3ccccc3)c2n1
→ .	.	98	.	.	i	0.82
> C=CCN(Cc1nc(-c2ccc(OC)c(OC)c2)oc1C)C1CCS(=O)(=O)C1 (centres undefined)
→ .	0	54	7	76	i	0.95
> COc1ccc(OC)c(N(CC(=O)N2CCCCC2)S(=O)(=O)c2ccc(OC)c(OC)c2)c1
→ -0.1	-6	94	38	101	i	0.92
> CC(=O)Nc1ccc(OCC(=O)NCc2ccccc2)cc1
→ .	1	94	.	.	i	0.95
> [O-]/C(=C(\C(=S)Nc1ccc(SC(F)F)cc1)[n+]1ccccc1)c1cc(Cl)ccc1Cl
→ .	-3	102	.	.	i	0.78
> O=C(COc1cccc(NC(=O)c2ccccc2)c1)c1ccc(F)cc1
→ -1.3	10	107	15	89	i	0.83
> Cc1ccc(NC(=S)NCCc2ccc(S(N)(=O)=O)cc2)c(C)c1
→ -0.2	11	.	52	27	i	1.1
> N#CC1=C(N)OC2=C(C(=O)CC(c3ccccc3)C2)C1c1ccoc1 (centres undefined)
→ -1.1	-2	106	43	96	i	1.1
> CN(Cc1cccs1)S(=O)(=O)c1cccs1
→ -1.0	-12	94	18	107	i	0.85
> CC(=O)n1cc([C@H]2C=C(C(=O)N3CCOCC3)O[C@@H](OCc3ccc(CO)cc3)C2)c2ccccc21
→ .	-1	98	.	.	i	1
> Cc1ccc(CN2C(=O)CCC2(C)C(=O)NCc2cccnc2)cc1 (centres undefined)
→ -0.5	-10	101	.	.	i	0.84
> COc1ccc(-c2cc(-c3ccccc3)c(C#N)c(=S)[nH]2)cc1
→ .	0	98	-26	144	i	1
> Cc1cc(C)n(C(=O)CCCCCCCC(=O)n2nc(C)cc2C)n1
→ -0.5	-4	106	-10	123	i	0.88
> CCCc1cc(=O)[nH]c(SCC(=O)N2N=C(c3ccc(Cl)cc3)CC2c2ccco2)n1 (centres undefined)
→ 1.0	1	92	11	92	i	0.97
> COc1ccc(C)cc1NC(=O)CSc1nnc(-c2ccco2)n1Cc1ccco1
→ -1.1	-9	99	15	76	i	0.85
> Cn1cc(CN2CCCC(CO)C2)c(-c2ccc(Oc3ccccc3)cc2)n1 (centres undefined)
→ .	-3	101	50	65	i	0.8
> Cc1cc(C(=O)CSc2n[nH]c(N)n2)c(C)n1-c1ccc2c(c1)OCO2
→ -0.4	-3	104	-24	82	i	0.96
> CCC(C(=O)N1CCN(C(=O)c2ccco2)CC1)c1ccccc1 (centres undefined)
→ 0.4	-1	111	-5	110	i	0.91
> COc1ccc(CNC(=O)c2c(F)c(F)c(F)c(F)c2F)cc1
→ -0.7	-3	97	13	103	i	0.93
> COCC(C)OC(=O)/C(C#N)=C\c1coc2ccc(C)cc2c1=O (centres undefined)
→ 0.3	-7	102	-7	135	i	1
> O=C(Nc1cc(C(F)(F)F)ccc1Cl)C(NCc1ccccc1)c1ccccc1 (centres undefined)
→ -0.1	-8	42	-8	69	i	0.95
> CC(=O)N1Cc2ccccc2CC1C(=O)O (centres undefined)
→ -2.3	-7	94	-26	111	i	0.79
> O=C(O)c1ccc(OCc2occc2C(=O)O)cc1
→ -0.2	3	102	-176	119	i	1
> COc1cccc(C(=O)NC2CC3CCCC(C2)N3S(=O)(=O)c2ccccc2)c1 (centres undefined)
→ .	.	103	.	.	i	1
> CCN(CC)S(=O)(=O)c1ccc(Cl)c(NC(=O)COc2ccccc2[N+](=O)[O-])c1
→ 0.3	-8	111	17	133	i	0.64
> Cc1ccccc1Nc1nn2c(=O)c3ccccc3nc2s1
→ -0.4	3	103	.	.	i	0.77
> Cc1ccccc1NC(=O)Cc1nc(CSc2nnc(-c3ccc4c(c3)OCO4)o2)cs1
→ -3.0	-1	106	-43	71	i	0.92

# Full records as entered above.
# `N#CC1=C(N)OC2=C(C(=O)CC(c3ccccc3)C2)C1c1ccoc1` (centres undefined) in the list: GALR2 ag = -1.1; PKD1 inh = -2; RGS16-Gao HTS = 106; INS promoter inh = 43; INS promoter inh cell count = 96; HSV augment = i; HSV augment primary fold = 1.1
# `COc1ccc(-c2cc(-c3ccccc3)c(C#N)c(=S)[nH]2)cc1` in the list: GALR2 ag = .; PKD1 inh = 0; RGS16-Gao HTS = 98; INS promoter inh = -26; INS promoter inh cell count = 144; HSV augment = i; HSV augment primary fold = 1

# (more compounds)
# Order of values: GALR2 ag	PKD1 inh	RGS16-Gao HTS	INS promoter inh	INS promoter inh cell count	HSV augment	HSV augment primary fold
> Cc1cc(Cl)ccc1C(=O)C1CCCN(C(=O)CCn2cnnn2)C1 (centres undefined)
→ .	-3	94	.	.	i	1
> O=C(NNC(=O)c1ccc(Cl)cc1Cl)c1ccncc1
→ -1.2	0	120	.	.	i	0.97
> CN(C)C(=O)c1nc2ccc(Cl)cn2c1CN1CCN(c2ncccn2)CC1
→ .	4	115	40	37	i	0.99
> COC(=O)C1=CN(Cc2cccs2)C=C(C(=O)OC)C1c1cccc(OC)c1OC
→ 1.3	-18	104	-10	108	i	0.86
> CN(C)C(=O)Oc1cccc([N+](C)(C)C)c1
→ -0.6&-1.8	-9&-4	99	-41&-26	95&91	i	0.97
> N#Cc1cnn2cc(-c3ncc(C(F)(F)F)cc3Cl)cnc12
→ -3.6	7	96	-34	78	i	1.2
> C=CCn1c(SCC(=O)NCC(=O)OCC)nnc1-c1ccccn1
→ -1.8	7	109	-50	129	i	0.86
> CCOC(=O)c1c(NC(=O)C(F)(OC)C(F)(F)F)sc2c1CCN(C)C2 (centres undefined)
→ 1.9	-3	107	.	.	i	1
> CCc1ccc(NC(=O)c2ccc3c(c2)C(=O)N(Cc2ccco2)C3=O)cc1
→ -2.3	-7	60	.	.	i	0.98
> Cc1ccc(CSCC(N)C(=O)O)cc1 (centres undefined)
→ -1.0	-5	100	-47	100	i	1.1
> N#C/C(C(=O)NCc1ccccc1)=C1/SC(Cc2ccc(Cl)cc2)C(=O)N1c1ccccc1 (centres undefined)
→ -1.3	1	102	36	118	i	1.2
> O=C(COc1ccc(Cl)cc1)N1CCN(c2ncccn2)CC1
→ -2.9	-9	90	25	110	i	0.82
> Cc1ccc(-c2nc3cc(N)ccc3o2)c(C)c1
→ 0.0	8	102	-73	195	i	0.89
> CCSc1nc(=O)n(-c2ccccc2)c(C)c1C(C)=O
→ -1.6	-17	95	.	.	i	0.97
> Cc1c(C(=O)NCCc2ccccc2)oc2ccc(S(=O)(=O)N3CCC4(CC3)OCCO4)cc12
→ -1.8	-10	98	-63	56	i	1.1
> CC1=CC(C)C2C(=O)N(CCC[N+](C)(C)C)C(=O)C2C1 (centres undefined)
→ -2.4	-6	103	31	76	i	1.1
> N#CCC(=O)N1CC2(CC(c3cccc(NC(=O)COc4ccc(Cl)cc4)c3)=NO2)C[C@@H]1C(N)=O (some centres undefined)
→ .	.	101	.	.	i	0.85
> CCOC(=O)N1CCN(c2c(Nc3cc(C)[nH]n3)c(=O)c2=O)CC1
→ -0.1	-3	99	.	.	i	0.92
> COc1ccc(/C=N/NC(=O)c2ccc(N(C)S(=O)(=O)c3ccccc3)cc2)cc1OC
→ -1.6	4	98	50	135	i	0.9
> c1cncc(-c2nnc(-c3ccco3)o2)c1
→ 0.6	1	119	-52	143	i	1.2
> Cc1ccc(OCC(=O)Nc2ccc(S(=O)(=O)N3CCCCC3)cc2)c([N+](=O)[O-])n1
→ .	-7	97	.	.	i	0.8
> Cc1cc(C)n(-c2ccc(C(=O)OCC(=O)NCc3ccco3)cc2)n1
→ 3.6	-4	78	.	.	i	1
> COc1ccc(Cl)cc1C(=O)NC(C)C
→ .	-2	107	.	.	i	0.96

# Molecules listed so far containing bromine, in the order listed:
# Order of values: GALR2 ag	PKD1 inh	RGS16-Gao HTS	INS promoter inh	INS promoter inh cell count	HSV augment	HSV augment primary fold
> CCOC(=O)c1c(C)n(CC(O)CN(C)C)c2cc(Br)c(OC)cc12 (centres undefined)
→ .	-7	96	-41	92	i	0.93
> CCOc1cnc(C(=O)NNC(=O)C(Br)C(C)C)o1 (centres undefined)
→ .	6	104	.	.	i	0.98

# High-throughput results as filed in PubChem BioAssay.
